# High-throughput results: PubChem, National Center for Advancing Translational Sciences (NCATS)
# 2A StopGo – lowers the luciferase signal of an FMDV 2A StopGo reporter | human cells with a luciferase reporter of 2A StopGo recoding; control for the full effect not named in the record | Potency, µM (doses to about 57.9 µM), without a hit: at the highest dose signal change, negative = less light | actives 1.2% (n = 410,000); active = well fitted falling curve with a large enough effect; inconclusive = small, poorly fitted or top-dose-only effect; inactive = no such curve, though single readings can be large or run the other way; tested in HEK293T cells; also: % is scaled to controls: 0 for no effect and ±100 for the full control effect; nearly all actives have a fitted effect of over 45% in size; luciferase light after 4 h
# SARS PLpro yeast – blocks SARS-CoV papain-like protease in a yeast assay; S. cerevisiae expressing SARS-CoV PLpro, growth rescue; control for the full effect not named in the record; Potency, µM (highest dose often 32.9 µM), for inactives: at the highest dose activity, positive = growth rescue; actives 0.19% (n = 330,000); active means well fitted rising curve with a large enough effect; inconclusive means small, poorly fitted or top-dose-only effect; inactive means no such curve, though single readings can be large or run the other way; also: 0% is about no effect; nearly all actives have a fitted effect of over 55% in size; growth read by luminescence after 48 h
# Cruzain inh noDet – cruzain (T. cruzi) inhibition without detergent. purified cruzain, Z-FR-AMC fluorescence, no detergent. Potency, µM, for the others: max response, negative = inhibition, hits mostly inhibitors. P25779. actives 2.3% (n = 200,000). AID 1476;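 also: plate controls were enzyme without inhibitor for no effect and buffer without enzyme for full effect; nearly all actives have a fitted effect of over 40% in size; top concentration of the series not given in the record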
# Target sequence (P25779 123-467 limits assumed): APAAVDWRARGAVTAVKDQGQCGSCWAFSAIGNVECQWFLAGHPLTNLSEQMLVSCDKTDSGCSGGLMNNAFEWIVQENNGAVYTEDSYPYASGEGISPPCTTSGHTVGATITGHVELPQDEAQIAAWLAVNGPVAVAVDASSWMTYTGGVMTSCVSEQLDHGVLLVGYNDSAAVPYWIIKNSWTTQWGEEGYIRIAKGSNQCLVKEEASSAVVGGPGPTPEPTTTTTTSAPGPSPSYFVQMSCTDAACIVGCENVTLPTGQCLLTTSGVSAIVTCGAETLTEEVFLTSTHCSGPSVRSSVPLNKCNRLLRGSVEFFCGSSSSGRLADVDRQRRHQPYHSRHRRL
#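 Detergent-free condition (0.00005% Triton X-100) in acetate buffer pH 5.5 with DTT. 1.5 nM enzyme and compound were pre-mixed 15 min, then 2 uM Z-FR-AMC substrate added; reaction progress from fluorescence change between first and third reads (60 s).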
# Cruzain Triton – inhibitors of Trypanosoma cruzi cruzain with detergent; purified cruzain, Z-FR-AMC fluorescence, 0.01% Triton; Potency, µM, inactives show max response, negative = inhibition, hits mostly inhibitors; actives 0.43% (n = 200,000); AID 1478;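 also: plate controls were neutral wells for no effect and buffer without enzyme for full effect; nearly all actives have a fitted effect of over 40% in size; top concentration of the series not given in the record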
#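 Enzyme 1.5 nM, Z-FR-AMC 2 uM, NaOAc 100 mM pH 5.5, DTT 5 mM, Triton X-100 0.01%; 15 min RT compound preincubation; kinetic ex360/em450, 60 s delta.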
# Lassa entry inh – blocks Lassa virus binding to or entry into cells; actives 1.2% (n = 300,000); Potency, µM (doses to about 37.9 µM), inactives show top-dose activity change, negative = inhibition, hits mostly inhibitors; Lassa virus pseudotype entry inhibition, cell reporter; control for the full effect not named in the record; AID 540256; active means well fitted inhibition curve with a large enough effect; inconclusive means small, poorly fitted or top-dose-only effect, or effect the other way; inactive means flat fitted curve, though single readings scatter; tested in HEK293 cells; also: % is scaled to controls: 0 for no effect and ±100 for the full control effect; nearly all actives have a fitted effect of over 50% in size; luciferase read-out
# NS1 function inh – inhibitors of influenza NS1 protein function | S. cerevisiae slowed by influenza A NS1, growth recovery by OD600 | Potency, µM (top dose mostly 46.1 µM), without a hit: at the top dose activity, positive = more growth | actives 0.4% (n = 270,000) | AID 2326; active means well fitted rising curve with a large enough effect; inconclusive means small, poorly fitted or top-dose-only effect; inactive means no such curve, though single readings can be large or run the other way; also: nearly all actives have a fitted effect of over 50% in size
#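 S. cerevisiae expressing influenza A NS1, grown in glucose, washed, then diluted 1:100 into pH 6.0 -URA galactose medium with 23 nl compound. Growth recovery read as OD600; NS1-free strain serves as control.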
# MARV entry inh – Marburg virus entry inhibition | Marburg virus pseudotyped entry inhibition, cell reporter; control for the full effect not named in the record; about a third of the inactives were read at about 46 µM | Potency, µM (series often up to 37.8 µM), without a hit: at the top dose activity change, negative = inhibition, most hits filed as inhibitors | actives 1.8% (n = 300,000); active = well fitted inhibition curve with a large enough effect; inconclusive = small, poorly fitted or top-dose-only effect, or effect the other way; inactive = flat fitted curve, though single readings scatter; tested in HEK293 cells; about a fifth of its hits are not listed in these tables; also: % is scaled to controls: 0 for no effect and ±100 for the full control effect; luciferase read-out
# RE007 growth inh – less growth of the S. pombe RE007 Vpr strain | actives 0.21% (n = 360,000) | Potency, µM (doses to about 92.2 µM), for inactives: at the highest dose activity change, negative = less growth | S. pombe RE007 Vpr strain, BacTiter-Glo ATP luminescence, 24 h; control for the full effect not named in the record; active = well fitted falling curve with a large enough effect; inconclusive = small, poorly fitted or top-dose-only effect; inactive = no such curve, though single readings can be large or run the other way;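 also: % is scaled to controls: 0 for no effect and ±100 for the full control effect; nearly all actives have a fitted effect of over 50% in size; the assay follows cell death caused by Vpr and the record does not say whether a fall means rescue or toxicity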
#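 Fission yeast strain RE007, carrying one chromosomally integrated HIV-1 vpr copy, was seeded at OD 0.01 in PMG+AL medium with 23 nL pinned compound. After 24 h at 30 °C and 99% humidity, viability was read by BacTiter-Glo luminescence.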
# Starred values were filed as active, the others as inactive; u = inconclusive; x = not tested or not shown; & = joins results of further samples; [ ] = remark or other dose. Unless noted, calls follow the shape of the dose curve; as a rule, active = well fitted curve in the direction sought with a large enough effect; inconclusive = small, poorly fitted or top-dose-only effect, or another doubt; inactive = no such curve, though single readings can be large; an effect the other way counts as inactive or inconclusive. Potency is read from the fitted curve at half-maximal effect. Outcome played no part in choosing rows; 4.7% or so of the library scored in one or more.
smiles	Cruzain inh noDet	MARV entry inh	Lassa entry inh	SARS PLpro yeast	NS1 function inh	Cruzain Triton	2A StopGo	RE007 growth inh
O=C1C=C(c2ccc(Cl)cc2)OC2(CCCC2)O1	2%	6%	-10%	-1%	-22%	-4.0%	0%	-12%
Cc1ccc(S(=O)(=O)N(CCc2ccccc2)CC(=O)Nc2ccccc2C)cc1	12%	x	-10%[46.1 µM]	x	x	-6.3%	-15%	x
Nn1c(SCC(=O)N2CCN(S(=O)(=O)c3ccccc3)CC2)nnc1-c1cccs1	5%	1%	22%	4%	-3%	3.1%	-4%	11%
Cn1c(COc2ccccc2Br)nc2ccccc21	x	x	x	-4%	-61%	x	54%[activator]	-26%
Cc1ccc(-n2nc(C)c3c(C(=O)Nc4ccc(Br)c(C)c4)cc(C)nc32)cc1	-5%	x	5%[46.1 µM]	x	x	-1.2%	u	x
COc1ccc(C2SCC(=O)N2c2c(C)n(C)n(-c3ccccc3)c2=O)cc1 (stereo unspecified)	9%	12%	0%	-6%	0%	3.2%	0%	-4%
O=C(Nc1cccc2ncccc12)c1ccc([N+](=O)[O-])o1	x	u	u	2%	-20%	x	8%	-25%
COC(=O)CCn1nnc(-c2cccs2)n1	-2%	6%	8%	-3%	-1%	2.8%	-18%	3%
CCCCC1(C)NC(=O)N(CC(=O)Nc2ccc(S(=O)(=O)N3CCOCC3)cc2)C1=O (stereo unspecified)	5%	-2%&-2%	0%	8%	1%	2.6%	-20%	-5%
O=C(Nc1ccccc1)c1cccc(S(=O)(=O)NCc2ccco2)c1	5%	-30%	-25%	-11%	3%	-3.5%	12%	-1%
COc1ccc(C)cc1Nc1n[n+](-c2ccccc2)c(-c2ccc(OC)c(OC)c2OC)s1	x	x	x	2%	-1%	x	u	-3%
COc1ccc(C(CNC(=O)COc2ccc(Cl)cc2C)N2CCCCC2)cc1 (stereo unspecified)	x	7%[46.1 µM]	17%[46.1 µM]	1%	-3%	x	-17%	6%
O=C(Nc1sc2c(c1C(=O)NCc1ccco1)CCCC2)c1cc(=O)c2cc(Cl)ccc2o1	-16%	2%[46.1 µM]	-1%[46.1 µM]	x	x	-1.6%	-4%	x
CCCS(=O)(=O)c1nc(S(=O)(=O)c2ccc(C)cc2)c(N(C)Cc2ccccc2)s1	-8%	u	-20%[46.1 µM]	x	x	-4.0%	-7%	x
COc1cc(/C=C/C(=O)O)cc(S(=O)(=O)Nc2cc(Cl)c(Cl)cc2Cl)c1OC	x	-1%[46.1 µM]	1%	0%	0%	x	-8%	13%
Cc1nn(Cc2cccc(F)c2)c(C)c1NC(=O)c1c(Cl)cnn1C	12%	u	-11%	17%	-19%	0.3%	u	30%
CCCCN1CNC(=S)N(c2cc(C)ccc2C)C1	6%	-11%	5%	15%	6%	-0.1%	0%	-10%
CCc1ccccc1Nc1nc(N)nc(COC(=O)c2cccn2C)n1	0%	8.2µM*	u	1%	7%	-3.4%	27%	-7%
C#CCOCCOCCOCCNc1nc(N2CCN(C(=O)[C@H](CCC(=O)O)n3cc(C(N)[C@H](C)CC)nn3)CC2)nc(N2CCN(C(=O)[C@H](Cc3ccc(O)cc3)n3cc(C(N)[C@H](C)CC)nn3)CC2)n1 (stereo partly specified)	x	x	x	0%	6%	x	-2%	-12%
O=C(NCc1ccccc1Cl)c1ccc2c(c1)N(Cc1ccccc1)C(=O)c1ccccc1S2	-14%	x	7%[46.1 µM]	x	x	0.4%	-5%	x
O=C(O)C(Cc1c[nH]c2ccccc12)NS(=O)(=O)c1ccc(Cl)c(C(F)(F)F)c1 (stereo unspecified)	x	12%[46.1 µM]	-2%[46.1 µM]	-1%	3%	x	-15%	4%
Clc1ccc(NCn2cncn2)nc1	2%	-11%[46.1 µM]	27%	3%	-13%	5.1%	-13%	21%
CCCC(=O)Nc1ccc(C(=O)NNC(=O)c2ccco2)cc1	-9%	10%	-7%	u	u	-0.9%	12%	-7%
CC1CCCC(NC(=O)C2CCC(CNc3c(N4CCCC4)c(=O)c3=O)CC2)C1C (stereo unspecified)	x	x	x	0%	3%	x	-16%	1%
CC(C(=O)c1cn(C)c2ccccc12)c1ccccc1 (stereo unspecified)	-4%	-14%	0%	-2%	0%	-5.2%	x	-6%
O=C(c1cnn2c(C(F)F)cc(-c3ccccc3)nc12)N1CCCc2ccccc21	5%	-6%	3%	-6%	15%	-6.8%	-6%	0%
COCc1ccc(CN2CCCC(CO)(Cc3cccc(OC)c3)C2)o1 (stereo unspecified)	x	x	x	4%	0%	x	-16%	-3%
O=C1C=C(c2ccccc2)CO1	x	u	13%	x	x	x	-10%	-8%
Cc1ccc(/C=C/C(=O)N2CCC(c3nc4ccccc4o3)CC2)cc1	-1%	-1%[46.1 µM]	7%[46.1 µM]	x	x	-3.9%	11%	x
Cc1cccc(C(=O)NNC(=O)CCC(=O)Nc2cccc(Cl)c2C)c1	-1%	u	8%	27%	-12%	-2.6%	22%	-1%
CCOC(=O)C1(Cc2cccc(Cl)c2)CCCN(C(=O)c2ccc(C)nc2)C1 (stereo unspecified)	x	u	-29%	-2%	-1%	x	-19%	0%
O=C(Nc1ccc2c(c1)OCCO2)N1CCN(c2ccccc2)CC1	7%	-15%	7%	4%	-10%	5.2%	-1%	20%[3.69 µM]
O=c1cccc2n1CC1CC2CN(CC(O)CN2CC3CC(C2)c2cccc(=O)n2C3)C1 (stereo unspecified)	x	23%[46.1 µM]	12%[46.1 µM]	2%	-1%	x	14%	11%
CCCCCC(=O)N[C@@H](c1ccccc1)[C@@H](O)C(=O)O[C@H]1C[C@@]2(O)[C@@H](OC(=O)c3ccccc3)C3[C@](C)(C(=O)[C@H](O)C(=C1C)C2(C)C)[C@@H](OC1OCC(O)C(O)C1O)C[C@H]1OC[C@@]31OC(C)=O (stereo partly specified)	x	x	x	4%	-77%	x	-12%	-1%
O=c1[nH]c(=O)n(-c2ccc(F)cc2)c(O)c1/C=C1\C=Nc2ccccc21	x	15%[46.1 µM]	-1%[46.1 µM]	3%	1%	x	-2%	-10%
Cn1c(=N)n(CC(=O)C(C)(C)C)c2ccccc21	0%	-4%[46.1 µM]	24%	0%	-8%	-2.9%	31%[activator]	-19%
COC(=O)c1cnn(-c2ccc(Cl)cc2)c1/C=N/NC(N)=S	x	u	u	0%	1%	x	14µM*	4%
CCOc1ccccc1-n1c(=S)sc2c(=O)n(-c3ccc(F)cc3)c(SCC(=O)O)nc21	x	-12%[46.1 µM]	u	-1%	6%	x	0%	9%
Cc1cc(C)c(C)c(S(=O)(=O)NCc2ccc(C(=O)N3CCCCC3)cc2)c1C	20%	-25%	-15%	-38%	-20%	-4.8%	-15%	2%
Cc1cc(C(=O)CSc2nnnn2-c2ccccc2)c(C)n1CC1CCCO1 (stereo unspecified)	1%	3%	u	-1%	2%	0.4%	22%	-9%
COCCn1c(SCC(=O)N(C)c2ccccc2)nc2c([nH]c3ccccc32)c1=O	x	-8%[46.1 µM]	-4%[46.1 µM]	1%	4%	x	-12%	-8%
O=C(Nc1ccc2c(c1)OCCO2)c1oc2ccccc2c1NC(=O)C1CC1	x	u	12%	-2%	x	x	-28%	-5%
CCOC(=O)N1CCC(Nc2c(NCCCN(CC)Cc3ccccc3)c(=O)c2=O)CC1	-2%	3%&3%	0%	10%	-7%	6.8%	-16%&-7%	-18%&4%
CCC(=O)N(C)CCc1cc2c(c(OC)c1/C=N/NC(=O)c1ccncc1)OCO2	x	x	x	0%	0%	x	-2%	0%
Cc1ccc(NS(=O)(=O)c2c(C(=O)N3CCOCC3)c(C)n(C)c2C)cc1	x	x	x	1%	-4%	x	10%	-1%
COc1ccc(NS(=O)(=O)c2ccc(N)cc2)nn1	2%&-6%&-3%	-15%&-15%&-15%&-15%&-15%&-15%	-9%	-1%&-6%	-1%&-7%	-3.5%&-1.5%&-0.3%	18%	x
Cc1ccc(NC(=O)C2CCN(S(=O)(=O)c3ccc4c(c3)C(C)(C)C(=O)N4C)CC2)c(C)c1	x	x	x	-3%	-20%	x	-19%	13%
CCC(OC(=O)C(NC(=O)c1ccccc1)c1ccccc1)C(=O)Nc1cc(C)on1 (stereo unspecified)	-26%	-1%	-6%	22µM*	-17%	-4.3%	x	-1%
ON1C(c2ccccc2C(F)(F)F)N(O)[C@H]2CCCC[C@H]21 (stereo partly specified)	2%	11%	0%	2%	11%	5.9%	6%	5%
CCOc1cc(C(=O)Nc2ccon2)cc(OCC)c1OCC	11%	8%	15%	-3%	-3%	3.0%	-22%	1%
CCOc1ccccc1C(=O)NCc1ccc2c(c1)CCN2C(C)=O	1%	x	1%[46.1 µM]	x	x	2.5%	42%[activator]	x
CCn1c(SCC(=O)N2CCN(C(=O)c3ccco3)CC2)nnc1C(C)C	x	10%[46.1 µM]	u	2%	7%	x	4%	-27%
CC(C)CCNC(=O)c1ccc(Cn2c(=O)c3cccn3c3cccnc32)cc1	-17%	x	-26%[46.1 µM]	x	x	-4.3%	-4%	x
COC(=O)c1ccc(NC(=S)Nc2ccccc2)cc1	0%	-7%	-2%	0%	4%	4.8%	x	-12%
CCOC(=O)c1cc(-c2csc(COc3ccccc3)n2)on1	x	x	x	-1%	-5%	x	-5%	5%
COCC(C)n1c(SCC(=O)NCCC2=CCCCC2)nc2ccccc2c1=O (stereo unspecified)	5%	-28%	15%	16%	-11%	-2.8%	-22%	5%
COc1cc(/C=C2\SC(=O)N(c3cccc(Cl)c3)C2=O)cc([N+](=O)[O-])c1O	x	2%[46.1 µM]	-25%	1%	0%	x	u	-12%
NS(=O)(=O)c1ccc2nc(NC(=O)CS(=O)(=O)c3ccccc3)sc2c1	x	x	x	-2%	2%	x	3%	5%
